Screening results from PubChem.
Yeast_UUG_start: alters start codon recognition fidelity in yeast; S. cerevisiae UUG-firefly luciferase reporter, luminescence/redox ratio; activity score, % at 18.7 µM; 0.13% of 350,000 active;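 active = replicate mean at a twofold rise or more, about +100% in these data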;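 note: firefly luciferase made from a UUG start codon reports start codon fidelity; reporter light over untreated wells divided by growth signal over untreated wells; some hits fall short of that in this replicate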
Env_fusion_inh: inhibitors of HIV Env-mediated cell fusion | HeLa-JRFL Env/CEM21 cell fusion, luciferase | inhibition, % at 12.3 µM | 1.1% of 360,000 active;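 active = mean replicate inhibition score of at least 50 and every replicate individually at or above 50; inconclusive = only one of the two criteria met; inactive = mean below 50 and not all replicates reaching 50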;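 note: 0% = plate neutral controls and 100% = maraviroc near 300 nM; one replicate is shown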
An asterisk follows results filed as active; ? = inconclusive; [ ] = dose if it differs, or a comment. The list is partial, so the mix of outcomes need not match the whole.

SMILES Yeast_UUG_start Env_fusion_inh
C[C@H](CO)N1C[C@H](C)[C@@H](CN(C)CC2CCCC2)Oc2cc(C#CC3CC3)ccc2S1(=O)=O 33 -1[16.7_µM]
COc1ccc(S(=O)(=O)Nc2ccc3c(c2)C(=O)N([C@@H](C)CO)C[C@@H](C)[C@H](CN(C)S(=O)(=O)c2ccc(C)cc2)OCCCC[C@@H](C)O3)cc1 5 11[16.7_µM]
CCC(=O)N1C[C@H](O)COC[C@H]2O[C@H](CC(=O)N3CCCCC3)CC[C@@H]21 -3 7[16.7_µM]
COc1ccc(S(=O)(=O)N2C[C@@H](O)COC[C@@H]3O[C@H](CC(=O)NCc4ccc(Cl)c(Cl)c4)CC[C@H]32)cc1 7 -22[16.7_µM]
Cc1noc(C)c1S(=O)(=O)N(C)C[C@@H]1OCCCC[C@@H](C)Oc2ccc(NC(=O)CCC(F)(F)F)cc2C(=O)N([C@@H](C)CO)C[C@H]1C 5 -47[16.7_µM]
Cc1noc(C)c1NC(=O)Nc1ccc2c(c1)CC(=O)N([C@H](C)CO)C[C@H](C)[C@@H](CN(C)Cc1ccccc1)O2 57 -14[16.7_µM]
C[C@H]1CCCCO[C@H](CN(C)C(=O)Nc2ccc(C(F)(F)F)cc2)[C@@H](C)CN([C@@H](C)CO)C(=O)c2cc(NS(=O)(=O)c3cccs3)ccc2O1 5 32[16.7_µM]
C[C@@H]1CN([C@@H](C)CO)C(=O)c2cc(NC(=O)c3ccncc3)ccc2O[C@@H](C)CCCCO[C@@H]1CN(C)Cc1ccc2c(c1)OCO2 19 -27[16.7_µM]
C[C@H]1CN([C@@H](C)CO)C(=O)Cc2cc(NC(=O)Nc3cccc4ccccc34)ccc2O[C@@H]1CN(C)C(=O)Nc1ccc(F)cc1 18 1[16.7_µM]
CC(C)C(=O)Nc1ccc2c(c1)C(=O)N(C)[C@@H]1CC[C@@H](CC(=O)NCCc3ccccc3)O[C@H]1CO2 11 -18[16.7_µM]
C[C@@H]1CN([C@@H](C)CO)C(=O)c2cc(/C=C/c3ccccc3)cnc2O[C@H]1CN(C)C(=O)CN(C)C 8 -8[16.7_µM]
C[C@H](CO)N1C[C@H](C)[C@@H](CN(C)C(=O)Nc2ccc(C(F)(F)F)cc2)Oc2ccc(NC(=O)Nc3cccc4ccccc34)cc2CC1=O 2 8[16.7_µM]
C[C@H]1CCCCO[C@H](CN(C)C(=O)C2CCCCC2)[C@@H](C)CN([C@@H](C)CO)C(=O)c2cc(NS(=O)(=O)c3ccc(F)cc3)ccc2O1 -1 -99[16.7_µM]
CCNC(=O)C[C@@H]1CC[C@H](NS(=O)(=O)c2ccc(F)cc2)[C@@H](CO)O1 -9 3[16.7_µM]
Cc1noc(C)c1NC(=O)N(C)C[C@H]1Oc2ccc(NC(=O)Nc3ccc(C(F)(F)F)cc3)cc2C(=O)N([C@H](C)CO)C[C@H]1C -14 -7[16.7_µM]
CN(C)CC(=O)Nc1ccc2c(c1)[C@@H]1C[C@@H](CC(=O)NCc3ccncc3)O[C@@H](CO)[C@@H]1O2 -11 -1[16.7_µM]
C[C@@H]1CN([C@H](C)CO)C(=O)c2cc(NS(=O)(=O)c3cccs3)ccc2O[C@@H](C)CCCCO[C@@H]1CN(C)C(=O)Cc1ccccc1 11 -7[16.7_µM]
O=C(N1CCOCC1)[C@]1(Cc2ccccc2)N=C(c2ccc(OCCCO)cc2)O[C@@H]1c1ccccc1 2 -12[16.7_µM]
COc1ccc(NC(=O)Nc2cccc3c2O[C@H](CN(C)Cc2ccc(-c4ccccc4)cc2)[C@H](C)CN([C@H](C)CO)C3=O)cc1 13 -46[16.7_µM]
C[C@@H]1CN([C@@H](C)CO)C(=O)c2cc(NC(=O)Nc3ccc(F)cc3)ccc2O[C@@H]1CN(C)S(=O)(=O)c1ccc(Cl)cc1 1 -1[16.7_µM]

Overlap with the part before: four entries; new compounds follow.
SMILES Yeast_UUG_start Env_fusion_inh
C[C@@H]1CN([C@H](C)CO)C(=O)c2cc(NS(=O)(=O)c3cccs3)ccc2O[C@@H](C)CCCCO[C@@H]1CN(C)C(=O)Cc1ccccc1 11 -7[16.7_µM]
O=C(N1CCOCC1)[C@]1(Cc2ccccc2)N=C(c2ccc(OCCCO)cc2)O[C@@H]1c1ccccc1 2 -12[16.7_µM]
COc1ccc(NC(=O)Nc2cccc3c2O[C@H](CN(C)Cc2ccc(-c4ccccc4)cc2)[C@H](C)CN([C@H](C)CO)C3=O)cc1 13 -46[16.7_µM]
C[C@@H]1CN([C@@H](C)CO)C(=O)c2cc(NC(=O)Nc3ccc(F)cc3)ccc2O[C@@H]1CN(C)S(=O)(=O)c1ccc(Cl)cc1 1 -1[16.7_µM]
C[C@@H]1CN([C@@H](C)CO)C(=O)c2cc(NC(=O)CCCN(C)C)ccc2O[C@@H](C)CCCCO[C@@H]1CN(C)Cc1ccncc1 -19 -8[16.7_µM]
COc1ccc(CN(C)C[C@@H]2OCCCC[C@H](C)Oc3ccc(NS(=O)(=O)c4ccccc4)cc3C(=O)N([C@@H](C)CO)C[C@@H]2C)cc1 8 -17[16.7_µM]
C[C@@H]1CN([C@@H](C)CO)S(=O)(=O)c2ccc(C3=CCCCC3)cc2O[C@H]1CN(C)C(=O)C1CC1 2 ?
C[C@@H]1CN([C@H](C)CO)C(=O)c2cccc(NS(=O)(=O)c3cn(C)cn3)c2O[C@@H]1CN(C)CC1CCCCC1 -12 -17[16.7_µM]
C/C=C/c1cnc2c(c1)C(=O)N([C@@H](C)CO)C[C@H](C)[C@H](CN(C)S(=O)(=O)c1ccc(C)cc1)O2 17 19[16.7_µM]
CN1C(=O)c2cc(NC(=O)c3ccc(F)cc3)ccc2OC[C@H]2O[C@H](CC(=O)NCC3CCCCC3)CC[C@@H]21 25 34[16.7_µM]
C[C@@H]1CN([C@H](C)CO)C(=O)Cc2cc(NS(=O)(=O)c3cccs3)ccc2O[C@H]1CN(C)CC1CCCCC1 -12 -30[16.7_µM]
Cc1noc(C)c1NC(=O)N(C)C[C@H]1Oc2ccc(NC(=O)Nc3ccc(F)cc3)cc2CC(=O)N([C@@H](C)CO)C[C@@H]1C 13 0[16.7_µM]
C[C@H]1CN([C@@H](C)CO)S(=O)(=O)c2ccc(-c3ccncc3)cc2O[C@@H]1CN(C)C(=O)c1cccc(F)c1 -2 -35[16.7_µM]
COCC(=O)N(C)C[C@H]1Oc2cc(-c3ccc(OC)cc3)ccc2S(=O)(=O)N([C@H](C)CO)C[C@@H]1C 0 5[16.7_µM]
C[C@H](CO)N1C[C@H](C)[C@@H](CN(C)C)Oc2ncc(C#CC3CC3)cc2C1=O -6 -5[16.7_µM]
C[C@@H]1CCCCO[C@@H](CN(C)S(C)(=O)=O)[C@H](C)CN([C@@H](C)CO)C(=O)c2cc(NC(=O)c3ccncc3)ccc2O1 6 -1[16.7_µM]
COc1ccccc1-c1ccc([C@@H]2[C@@H](CO)N(C(=O)C3CCC3)[C@H]2C#N)cc1 1 9[16.7_µM]
CCC(=O)N(C)C[C@@H]1Oc2cc(C#CC(C)C)ccc2S(=O)(=O)N([C@@H](C)CO)C[C@@H]1C -2 32[16.7_µM]
C[C@H]1CCCCO[C@H](CN(C)Cc2ccncc2)[C@@H](C)CN([C@@H](C)CO)C(=O)c2cc(NC(=O)Cc3ccccc3)ccc2O1 11 -29[16.7_µM]
CN(C)C(=O)c1ccc(-c2ccc([C@@H]3[C@@H](C#N)N(C(=O)C4CC4)[C@H]3CO)cc2)cc1 -1 -7[16.7_µM]
CCNC(=O)Nc1ccc2c(c1)C(=O)N(C)[C@H]1CC[C@H](CC(=O)NCCOC)O[C@H]1CO2 -6 12[16.7_µM]
C[C@@H]1CN([C@H](C)CO)C(=O)c2cccc(NC(=O)C3CCOCC3)c2O[C@H]1CN(C)Cc1ccc2c(c1)OCO2 8 8[16.7_µM]
CN(C)Cc1cn(CC[C@H]2CC[C@H](NS(=O)(=O)c3ccccc3)[C@H](CO)O2)nn1 -3 12[16.7_µM]
Cc1ccc(S(=O)(=O)Nc2ccc3c(c2)C(=O)N([C@@H](C)CO)C[C@H](C)[C@@H](CN(C)S(=O)(=O)c2ccc(Cl)cc2)OCCCC[C@@H](C)O3)cc1 -9 22[16.7_µM]
COc1ccc(NC(=O)N(C)C[C@@H]2OCCCC[C@H](C)Oc3ccc(NS(=O)(=O)c4ccc(F)cc4)cc3C(=O)N([C@H](C)CO)C[C@@H]2C)cc1 6 -25[16.7_µM]
C=CC[C@]1(C(=O)OC)N=C(c2ccc(OCCCO)cc2)O[C@H]1c1ccccc1 14 0[16.7_µM]
CCC(=O)Nc1ccc2c(c1)C(=O)N(C)[C@@H]1CC[C@@H](CC(=O)NCCCN(C)C)O[C@@H]1CO2 0 -8[16.7_µM]
C[C@@H]1CN([C@H](C)CO)C(=O)Cc2cc(NC(=O)CCN3CCOCC3)ccc2O[C@H]1CN(C)S(C)(=O)=O -7 -4[16.7_µM]
O=C(Nc1ccc2c(c1)OCO2)N[C@@H]1CC[C@H](CCNC(=O)C2CCCCC2)O[C@@H]1CO -6 -3[16.7_µM]
Cc1noc(C)c1NC(=O)Nc1ccc2c(c1)C(=O)N([C@H](C)CO)C[C@@H](C)[C@@H](CN(C)C(=O)Nc1ccc(C(F)(F)F)cc1)OCCCC[C@@H](C)O2 -5 -2[16.7_µM]
C[C@@H]1CN([C@@H](C)CO)C(=O)c2cc(NS(=O)(=O)c3cccs3)ccc2O[C@@H](C)CCCCO[C@@H]1CN(C)Cc1ccc(C(F)(F)F)cc1 3 -2[16.7_µM]
O=C(Nc1ccc(F)cc1)N[C@H]1CC[C@H](CC(=O)N2CCOCC2)O[C@@H]1CO -11 12[16.7_µM]
C[C@@H]1CN([C@H](C)CO)C(=O)c2cc(C#C[C@@H](C)O)cnc2O[C@H]1CN(C)C(=O)CC1CC1 2 -31[16.7_µM]
COc1ccc(S(=O)(=O)Nc2ccc3c(c2)CC(=O)N([C@@H](C)CO)C[C@H](C)[C@@H](CN(C)S(C)(=O)=O)O3)cc1 -19 3[16.7_µM]
C[C@@H]1CN([C@H](C)CO)C(=O)c2cccc(NC(=O)c3cnccn3)c2O[C@H]1CN(C)Cc1ccc(C(=O)O)cc1 4 -10[16.7_µM]
O=C(NCC[C@@H]1CC[C@@H](NC(=O)Nc2cc(F)ccc2F)[C@H](CO)O1)Nc1ccc(F)cc1 -6 7[16.7_µM]
N#C[C@H]1[C@H](c2ccc(C3=CCCC3)cc2)[C@H](CO)N1C(=O)C1CCC1 -3 4[16.7_µM]
C[C@@H]1CN([C@H](C)CO)C(=O)c2cc(C#CCN(C)C)cnc2O[C@H]1CN(C)C(=O)Cc1cccnc1 -8 -20[16.7_µM]
O=C(N[C@H]1C=C[C@@H](CC(=O)N2CCN(c3ccccc3)CC2)O[C@H]1CO)c1ccccc1 -6 11[16.7_µM]
O=C(Nc1ccc(F)cc1)N[C@@H]1CC[C@H](CC(=O)N2CCCCC2)O[C@@H]1CO -23 12[16.7_µM]
C[C@@H]1CN([C@@H](C)CO)C(=O)c2cc(C#CCC3CCCC3)cnc2O[C@H]1CN(C)CC1CCOCC1 17 10[16.7_µM]
C[C@H]1CN([C@@H](C)CO)C(=O)Cc2cc(NC(=O)C3CCCCC3)ccc2O[C@@H]1CN(C)S(C)(=O)=O -1 7[16.7_µM]
C[C@H](NC(=O)C[C@@H]1CC[C@H](NC(=O)Nc2ccc3c(c2)OCO3)[C@@H](CO)O1)c1ccccc1 -5 2[16.7_µM]
CCNC(=O)C[C@H]1CC[C@H]2[C@@H](COc3ccc(NC(=O)c4ccc(F)cc4)cc3C(=O)N2C)O1 -12 -11[16.7_µM]
C[C@@H]1CN([C@@H](C)CO)C(=O)Cc2cc(NC(=O)Cc3ccccc3)ccc2O[C@H]1CN(C)S(=O)(=O)c1cccs1 6 3[16.7_µM]
CC(C)NC(=O)NCC[C@H]1CC[C@@H](NC(=O)c2ccc(F)cc2)[C@@H](CO)O1 -3 5[16.7_µM]
O=C(N[C@@H]1C=C[C@@H](CC(=O)N2CCCCC2)O[C@H]1CO)c1ccccn1 -7 9[16.7_µM]
O=C(C[C@H]1C[C@@H]2c3cc(NC(=O)Nc4ccccc4F)ccc3O[C@@H]2[C@@H](CO)O1)NC1CCCC1 7 13[16.7_µM]
Cc1noc(C)c1S(=O)(=O)Nc1ccc2c(c1)C(=O)N([C@@H](C)CO)C[C@H](C)[C@H](CN(C)Cc1ccncc1)OCCCC[C@@H](C)O2 2 -7[16.7_µM]
COc1ccc(NC(=O)N(C)C[C@@H]2OCCCC[C@@H](C)Oc3ccc(NC(=O)Cc4ccccc4)cc3C(=O)N([C@@H](C)CO)C[C@H]2C)cc1 3 -13[16.7_µM]
C[C@@H]1CCCCO[C@@H](CN(C)C(=O)Nc2ccc(F)cc2)[C@@H](C)CN([C@H](C)CO)C(=O)c2cc(NS(=O)(=O)c3ccc(F)cc3)ccc2O1 -8 11[16.7_µM]
C[C@H](CO)N1C[C@H](C)[C@H](CN(C)S(C)(=O)=O)Oc2ccc(NC(=O)Cc3ccccc3)cc2CC1=O -2 12[16.7_µM]
Cc1noc(C)c1S(=O)(=O)N(C)C[C@@H]1Oc2c(NS(=O)(=O)c3ccccc3)cccc2C(=O)N([C@H](C)CO)C[C@@H]1C -3 -12[16.7_µM]

Four structures out of the list, sorted by SMILES length, rising.
SMILES Yeast_UUG_start Env_fusion_inh
CC(C)NC(=O)NCC[C@H]1CC[C@@H](NC(=O)c2ccc(F)cc2)[C@@H](CO)O1 -3 5[16.7_µM]
O=C(C[C@H]1C[C@@H]2c3cc(NC(=O)Nc4ccccc4F)ccc3O[C@@H]2[C@@H](CO)O1)NC1CCCC1 7 13[16.7_µM]
Cc1noc(C)c1S(=O)(=O)N(C)C[C@@H]1Oc2c(NS(=O)(=O)c3ccccc3)cccc2C(=O)N([C@H](C)CO)C[C@@H]1C -3 -12[16.7_µM]
C[C@@H]1CCCCO[C@@H](CN(C)C(=O)Nc2ccc(F)cc2)[C@@H](C)CN([C@H](C)CO)C(=O)c2cc(NS(=O)(=O)c3ccc(F)cc3)ccc2O1 -8 11[16.7_µM]
